Screens as filed in PubChem.
EPAC1 agonist = validation of human EPAC1 agonists. Potency, µM, for inactives: max response, positive = active, usual class: activators. hit rate 1% among 16,000. O95398. EPAC1 Rap1b BODIPY-GDP exchange, fluorescence; active means well fitted activation curve with a large enough effect; inconclusive means small, poorly fitted or top-dose-only effect; inactive means no such curve, though single readings can be large or run the other way;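 further: nearly all actives have a fitted effect of over 70% in size; series mostly up to about 76 or 150 µM; scaled to a cAMP control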
Target sequence (O95398 whole entry, looked up): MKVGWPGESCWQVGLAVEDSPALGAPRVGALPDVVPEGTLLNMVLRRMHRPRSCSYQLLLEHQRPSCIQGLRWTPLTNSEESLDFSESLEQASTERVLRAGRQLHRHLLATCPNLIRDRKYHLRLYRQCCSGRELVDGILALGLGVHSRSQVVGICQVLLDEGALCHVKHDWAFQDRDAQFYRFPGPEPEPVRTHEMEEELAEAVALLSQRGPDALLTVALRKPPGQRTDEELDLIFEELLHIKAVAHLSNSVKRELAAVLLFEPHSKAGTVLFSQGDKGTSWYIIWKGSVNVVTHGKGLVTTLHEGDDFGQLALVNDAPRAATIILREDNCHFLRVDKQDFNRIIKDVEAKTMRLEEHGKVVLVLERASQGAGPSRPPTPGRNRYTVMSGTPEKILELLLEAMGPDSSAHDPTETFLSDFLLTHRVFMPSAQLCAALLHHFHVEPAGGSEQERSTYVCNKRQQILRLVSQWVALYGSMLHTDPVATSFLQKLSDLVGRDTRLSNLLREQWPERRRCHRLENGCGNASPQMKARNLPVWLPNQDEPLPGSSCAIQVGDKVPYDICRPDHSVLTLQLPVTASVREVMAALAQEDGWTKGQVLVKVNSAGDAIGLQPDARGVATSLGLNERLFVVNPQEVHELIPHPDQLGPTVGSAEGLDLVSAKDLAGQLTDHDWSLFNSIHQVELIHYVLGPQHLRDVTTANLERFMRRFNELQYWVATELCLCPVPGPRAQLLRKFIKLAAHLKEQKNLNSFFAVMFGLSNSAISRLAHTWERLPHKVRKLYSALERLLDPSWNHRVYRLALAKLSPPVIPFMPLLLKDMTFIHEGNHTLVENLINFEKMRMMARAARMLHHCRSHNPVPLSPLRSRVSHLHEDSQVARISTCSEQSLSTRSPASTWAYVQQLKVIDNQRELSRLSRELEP
The depositor's hits bear a star; u = inconclusive; & = joins results of further samples; [ ] = remark or other dose. On the % scale 0 is the no-effect control and ±100 the full control effect; potency means the concentration at half of the fitted maximal effect. An excerpt; rates above refer to the full screens.

SMILES	EPAC1 agonist
CCCOc1ccc(C(=O)OCCN(CC)CC)cc1N	11%
O=C(O)Cc1cn(-c2ccccc2)nc1-c1ccc(Cl)cc1	-29%
CCCCCCCCCCCCOCCOCCOCCOCCOCCOCCOCCOCCOCCO	-112%[inhibitor]
CN1[C@@H]2CC[C@H]1CC(NC(=O)n1c(=O)[nH]c3ccccc31)C2 (stereo partly specified)	4%
CN[C@@H]1[C@H](O)[C@H](NC)[C@H]2O[C@@]3(O)C(=O)C[C@@H](C)O[C@H]3O[C@@H]2[C@H]1O	1%&-5%&7%
CCN(CC)CCOc1ccc(Cc2ccccc2)cc1	-22%&-20%
COC(=O)c1ccccc1O	-34%[inhibitor]
CC(Cc1cccc(C(F)(F)F)c1)NCCOC(=O)c1ccccc1 (stereo unspecified)	-47%[inhibitor]
Cc1cc(Cn2cnc3c2C[C@@H](C(=O)O)N(C(=O)C(c2ccccc2)c2ccccc2)C3)ccc1N(C)C	-1%
CN(C)CC/C=C1/c2ccccc2COc2ccc(CC(=O)O)cc21	-4%
COc1ccc(C(=O)c2ccccc2)c(O)c1	-21%&17%
Cc1ccccc1OCC(O)CO (stereo unspecified)	-13%
O=C(NC1CCN(CCc2c[nH]c3ccccc23)CC1)c1ccccc1	-31%[inhibitor]
CCN(CC)CC1CCCCN1CC(=O)N1c2ccccc2C(=O)Nc2cccnc21 (stereo unspecified)	0%
N=c1nc(N2CCCCC2)cc(N)n1O	-6%&-12%&10%&4%&-4%
Cc1scc2c1N(C(=O)CN1CCN(C)CC1)c1ccccc1NC2=O	3%&-5%&26%&3%
CC1CCC2(C(=O)O)CCC3(C)C(=CCC4C3(C)CCC3[C@@]4(C)CC(O)C(O)[C@@]3(C)CO)C2C1C (stereo partly specified)	-145%[inhibitor]
CCCOc1ccc2nc(NC(=O)OC)[nH]c2c1	u
O=C(CCN1CCN(CCO)CC1)N1c2ccccc2Sc2ccc(C(F)(F)F)cc21	13%
Cc1cccc(N(C)C(=S)Oc2ccc3c(c2)CCC3)c1	24%
CCc1cccc(CC)c1NC(=O)CN(CC(=O)O)CC(=O)O	2%
CCCCCCCCCCCCCCCC[N+](C)(C)Cc1ccccc1	-43%[inhibitor]
Nc1c2ccccc2nc2ccccc12	20%&-17%
COc1ccc(-c2cc(C(F)F)nn2-c2ccc(S(N)(=O)=O)cc2)cc1F	18%
O=C(O)c1cc(=O)c2ccccc2o1	14%

Three entries already listed, sorted by their value in EPAC1 agonist, largest number first.
SMILES	EPAC1 agonist
Cc1cccc(N(C)C(=S)Oc2ccc3c(c2)CCC3)c1	24%
O=C(CCN1CCN(CCO)CC1)N1c2ccccc2Sc2ccc(C(F)(F)F)cc21	13%
CCCOc1ccc(C(=O)OCCN(CC)CC)cc1N	11%

Continuation:
SMILES	EPAC1 agonist
CCN(CCCCOC(=O)c1ccc(OC)c(OC)c1)C(C)Cc1ccc(OC)cc1 (stereo unspecified)	-6%&-1%
C=CCCCCCCCCC(=O)OC	-10%
CNS(=O)(=O)CCc1ccc2[nH]cc(C3CCN(C)CC3)c2c1	1%
CC1(C)[C@@H](O[C@H]2O[C@H](C(=O)O)[C@@H](O)[C@H](O)[C@H]2O[C@@H]2O[C@H](C(=O)O)[C@@H](O)[C@H](O)[C@H]2O)CC[C@]2(C)[C@H]3C(=O)C=C4[C@@H]5C[C@@](C)(C(=O)O)CC[C@]5(C)CC[C@@]4(C)[C@]3(C)CC[C@@H]12	-18%
COc1cc(C=O)ccc1O	u
O=C(NCCCN1CCOCC1)c1ccc(Cl)cc1	22%
CCCCCCCCCCCC[N+](C)(C)Cc1ccccc1	-58%[inhibitor]
CC(C)NNC(=O)c1ccncc1	12%&-11%
CN(C)c1ccc2nc3ccc(=[N+](C)C)cc-3sc2c1	-5%
Cc1cc(=O)oc2cc(O)ccc12	-18%
C=Cc1ccccc1	1%
NC(=O)C[C@@H](N)C(=O)O	-22%
Cn1ccc2cc3c(cc21)CCN3C(=O)Nc1cccnc1	-1%&1%&2%
COC(=O)N/N=C/c1c[n+]([O-])c2ccccc2[n+]1[O-]	-17%
CCCCOc1cc(C(=O)OCCN(CC)CC)ccc1N	-28%
O=C(O)c1ccc(-n2nc(-c3ccccc3O)nc2-c2ccccc2O)cc1	-95%[inhibitor]
CN(C)CCCSc1ccccc1NC(=O)/C=C/c1ccccc1	-28%
CCc1ccccc1OC[C@@H](O)CN[C@H]1CCCc2ccccc21	3%
CN(c1nccc(=O)[nH]1)C1CCN(c2nc3ccccc3n2Cc2ccc(F)cc2)CC1	-16%
Cc1c(C)n(Cc2ccccc2)c2ccc(C(=O)OCCN(C)C)cc12	-10%
CC[C@@]12CCCN3CCc4c(n(c5ccccc45)[C@](O)(C(=O)OC)C1)[C@H]32	0%
CCOC(=O)[C@H](CCc1ccccc1)N[C@@H](C)C(=O)N1C(=O)N(C)C[C@H]1C(=O)O	-5%
CC(C)(C)NCC(O)COc1cccc2c1CC(O)C(O)C2 (stereo unspecified)	18%
NCc1ccccc1Sc1ccccc1CO	5%
Nc1ncnc2c1c(-c1ccc(Oc3ccccc3)cc1)cn2C1CCCC1	0%

Taken from the listing for reference:
SMILES	EPAC1 agonist
CCc1cccc(CC)c1NC(=O)CN(CC(=O)O)CC(=O)O	2%
CCCCCCCCCCCCCCCC[N+](C)(C)Cc1ccccc1	-43%[inhibitor]
Nc1c2ccccc2nc2ccccc12	20%&-17%
COc1ccc(-c2cc(C(F)F)nn2-c2ccc(S(N)(=O)=O)cc2)cc1F	18%
O=C(O)c1cc(=O)c2ccccc2o1	14%
CCN(CCCCOC(=O)c1ccc(OC)c(OC)c1)C(C)Cc1ccc(OC)cc1 (stereo unspecified)	-6%&-1%
C=CCCCCCCCCC(=O)OC	-10%
CNS(=O)(=O)CCc1ccc2[nH]cc(C3CCN(C)CC3)c2c1	1%
CC1(C)[C@@H](O[C@H]2O[C@H](C(=O)O)[C@@H](O)[C@H](O)[C@H]2O[C@@H]2O[C@H](C(=O)O)[C@@H](O)[C@H](O)[C@H]2O)CC[C@]2(C)[C@H]3C(=O)C=C4[C@@H]5C[C@@](C)(C(=O)O)CC[C@]5(C)CC[C@@]4(C)[C@]3(C)CC[C@@H]12	-18%
COc1cc(C=O)ccc1O	u
O=C(NCCCN1CCOCC1)c1ccc(Cl)cc1	22%
CCCCCCCCCCCC[N+](C)(C)Cc1ccccc1	-58%[inhibitor]
CC(C)NNC(=O)c1ccncc1	12%&-11%
CN(C)c1ccc2nc3ccc(=[N+](C)C)cc-3sc2c1	-5%
Cc1cc(=O)oc2cc(O)ccc12	-18%
C=Cc1ccccc1	1%
NC(=O)C[C@@H](N)C(=O)O	-22%
Cn1ccc2cc3c(cc21)CCN3C(=O)Nc1cccnc1	-1%&1%&2%
COC(=O)N/N=C/c1c[n+]([O-])c2ccccc2[n+]1[O-]	-17%
CCCCOc1cc(C(=O)OCCN(CC)CC)ccc1N	-28%
O=C(O)c1ccc(-n2nc(-c3ccccc3O)nc2-c2ccccc2O)cc1	-95%[inhibitor]
CN(C)CCCSc1ccccc1NC(=O)/C=C/c1ccccc1	-28%
CCc1ccccc1OC[C@@H](O)CN[C@H]1CCCc2ccccc21	3%
CN(c1nccc(=O)[nH]1)C1CCN(c2nc3ccccc3n2Cc2ccc(F)cc2)CC1	-16%
Cc1c(C)n(Cc2ccccc2)c2ccc(C(=O)OCCN(C)C)cc12	-10%
CC[C@@]12CCCN3CCc4c(n(c5ccccc45)[C@](O)(C(=O)OC)C1)[C@H]32	0%
CCOC(=O)[C@H](CCc1ccccc1)N[C@@H](C)C(=O)N1C(=O)N(C)C[C@H]1C(=O)O	-5%
CC(C)(C)NCC(O)COc1cccc2c1CC(O)C(O)C2 (stereo unspecified)	18%
NCc1ccccc1Sc1ccccc1CO	5%
Nc1ncnc2c1c(-c1ccc(Oc3ccccc3)cc1)cn2C1CCCC1	0%

(listing goes on)
SMILES	EPAC1 agonist
C[C@@H]1C[C@H]2[C@@H]3CCC4=CC(=O)C=C[C@]4(C)[C@@]3(Cl)[C@@H](O)C[C@]2(C)[C@@]1(OC(=O)c1ccco1)C(=O)CCl	-25%
CN(C)C/C=C(\c1ccc(Br)cc1)c1cccnc1	2%
CCCC(=O)O[C@]1(C(=O)COC(C)=O)CC[C@H]2[C@@H]3C[C@H](F)C4=CC(=O)C=C[C@]4(C)[C@@]3(F)[C@@H](O)C[C@@]21C	-8%
CCC1(O)CC2CN(CCc3c([nH]c4ccccc34)[C@@](C(=O)OC)(c3cc4c(cc3OC)N(C)C3[C@]45CCN4CC=C[C@@](CC)([C@@H](OC(C)=O)[C@]3(O)C(=O)OC)[C@H]45)C2)C1 (stereo partly specified)	3%
Cc1ccccc1N1CCN(CCc2nnc3n2CCCC3)CC1	-19%
CN(C(=O)c1c(O)c2ccccc2n(C)c1=O)c1ccccc1	-14%
c1ccc(-n2cnnn2)cc1	-11%
Cc1cc(CC(C)CC(C)(C)C)n(O)c(=O)c1 (stereo unspecified) (tested in a mixture with another compound)	-66%[inhibitor]
CC(=O)OCC(=O)[C@@]1(O)CC[C@H]2[C@@H]3CCC4=CC(=O)C=C[C@]4(C)[C@@]3(F)[C@@H](O)C[C@@]21C	-21%
O=C(O)Cc1sc(-c2ccccc2)nc1-c1ccc(Cl)cc1	-2%&8%&-8%
CCCCC(CC)COC(=O)c1ccccc1O (stereo unspecified)	-9%
CC(C)(C)NCC(O)COc1cccc2c1C[C@H](O)[C@H](O)C2 (stereo partly specified)	4%
O=C1c2c(O)cccc2[C@@H]([C@@H]2O[C@H](CO)[C@@H](O)[C@H](O)[C@H]2O)c2cc(CO)cc(O)c21	-25%
COC(=O)C1=C(C)NC(C)=C(C(=O)OCCN2CCN(C(c3ccccc3)c3ccccc3)CC2)C1c1cccc([N+](=O)[O-])c1 (stereo unspecified)	7%
COc1cc(C2Oc3cc(C4Oc5cc(O)cc(O)c5C(=O)C4O)ccc3OC2CO)ccc1O (stereo unspecified)	12%
CCn1cc(C(=O)O)c(=O)c2cc(F)c(N3CCNC(C)C3)c(F)c21 (stereo unspecified)	u
CCCCCCCCCCCCCCC[C@@H](O)[C@@H](N)CO	-5%&-31%
CC(=O)Nc1ccc(OC(=O)c2ccccc2OC(C)=O)cc1	-4%
CN(C)C(=O)CNC(=O)Cc1ccccc1	12%
CC[C@H](C)[C@H](N)C(=O)O	-14%
CCCCN(CCCC)CCCOC(=O)c1ccc(N)cc1	-13%&-35%
CCOC(=O)c1ccccc1O	10%&6%
O=C1c2c(O)ccc(O)c2C(=O)c2c(NCCNCCO)ccc(NCCNCCO)c21	-10%&-23%&-18%
C=CCN1C[C@H](C(=O)N(CCCN(C)C)C(=O)NCC)C[C@@H]2c3cccc4[nH]cc(c34)C[C@H]21	-10%
